H5N1 antiviral – MDCK cell protection from H5N1 avian flu. 96,000 compounds, 0.07% hits. AID 740, 2007. cytopathic effect, luminescence, 72 h; hits give high values; no value below 0 was filed and about half of the inactive calls have no number; reference of the scale not given here. inhibition, % at 50 µM; in the data active = inhibition above about 25%
* = called active by the depositor.

`Cc1ccc(SCC(=O)NC(C)(C)C)cc1` gave H5N1 antiviral 0.2.
`C(=N\N1CCN(C2c3ccccc3-c3ccccc32)CC1)/c1cccs1` gave H5N1 antiviral inactive.
Screening CC(C)c1nc2ccc(NC(=O)C34CC5CC(CC(C5)C3)C4)cc2[nH]1 returned H5N1 antiviral inactive.
Screening CCCCc1nc(NCCNC(=O)c2ccccc2)c(C#N)c2c1CSC(C)(C)C2 returned H5N1 antiviral 1.3.
`Nc1nnc(N2CCCCC2)s1` gave H5N1 antiviral 1.0.
For CCC(CC)C(=O)N1CCN(Cc2ccc3c(c2)OCO3)CC1 the results were H5N1 antiviral 1.6.
`CCOc1ccccc1NC(=O)NC1(C(=O)N2CCOCC2)CCCCC1` gave H5N1 antiviral 0.9.
CN(C)/C=C1\N=C(c2cccs2)OC1=O was read as H5N1 antiviral inactive.
`COc1ccc(NC(=O)CSc2nnc(-c3cccs3)n2-c2ccccc2)cc1` gave H5N1 antiviral inactive.
Screening CC1(C)CC(=O)c2cc3c(N)c(C(=O)NCc4ccccc4)sc3nc2C1 returned H5N1 antiviral 0.6.
Screening CCOC(=O)CCCCC(=O)c1[nH]c(=O)[nH]c1CSc1nc(C)cc(C)n1 returned H5N1 antiviral 0.3.
Screening CCC(C)NC(=O)Nc1ccc2c(c1)N(C)C(=O)c1ccccc1S2 (stereo unspecified) returned H5N1 antiviral inactive.
Screening COc1cc2c(cc1OC)C(C(=O)N1CCN(c3ccccn3)CC1)C(c1cccs1)N(C)C2=O (stereo unspecified) returned H5N1 antiviral 0.1.
`COc1ccccc1-c1nnc(SCC(=O)NCc2c(C)c(Cl)cc(C(C)C)c2O)o1` gave H5N1 antiviral inactive.
`CCCn1c(CN2CCCCC2C)nc2c1c(=O)n(C)c(=O)n2C` (stereo unspecified) gave H5N1 antiviral 3.7.
For O=C(Nc1ccccc1Cl)c1ccn[nH]1 the results were H5N1 antiviral inactive.
Screening CN(C)Cc1c(O)ccc2c3c(c(=O)oc12)CCCCC3 returned H5N1 antiviral 2.0.
`Cn1ncc(C#N)c1NC(=O)c1nn2cccnc2c1Cl` gave H5N1 antiviral 0.3.
CC(C)CNS(=O)(=O)c1ccc(CCC(=O)N2CCOCC2)cc1 was read as H5N1 antiviral inactive.
CCC(C)(C(=O)NC1CCCCC1)N(C)C(=O)c1ccccn1 (stereo unspecified) was read as H5N1 antiviral inactive.

Next section; the last two above are carried over.
CC(C)CNS(=O)(=O)c1ccc(CCC(=O)N2CCOCC2)cc1 was read as H5N1 antiviral inactive.
CCC(C)(C(=O)NC1CCCCC1)N(C)C(=O)c1ccccn1 (stereo unspecified) was read as H5N1 antiviral inactive.
`CCn1cc(C(=O)NCCCN(C)C)c(=O)c2cc(F)c(N3CCN(C)CC3)cc21` gave H5N1 antiviral 1.7.
`Clc1ccc(CSc2snnc2-c2ccccc2)cc1` gave H5N1 antiviral inactive.
For C=CCc1ccc(OCC(O)CN2CCCCC2C)c(OC)c1 (stereo unspecified) the results were H5N1 antiviral inactive.
CCOc1cc(C2NC(=O)NC(O)(C(F)(F)F)C2C(=O)c2ccccc2)ccc1OC (stereo unspecified) was read as H5N1 antiviral 0.2.
CCOc1ccc(NC(=O)CCC(=O)n2nc(C)cc2C)cc1 was read as H5N1 antiviral 0.1.
`COCCCNC(=O)C(C#N)c1nc2ccccc2nc1N1CCCC1` (stereo unspecified) gave H5N1 antiviral inactive.
Screening COC(=O)NCc1cccc(CNC(=O)OC)c1 returned H5N1 antiviral 0.7.
Screening O=C(Nc1cnn(Cc2ccc(Cl)cc2)c1)c1cnccn1 returned H5N1 antiviral 0.1.
For CC1CCCCN1CCNC(=O)CC1Oc2ccccc2NC1=O (stereo unspecified) the results were H5N1 antiviral 0.1.
`Cn1c(NC(=O)Cc2cccs2)cc(=O)n(C)c1=O` gave H5N1 antiviral 2.7.
Screening O=C(OCCOCCN=C1NS(=O)(=O)c2ccccc21)C1CC(=O)N(c2ccccc2)C1 (stereo unspecified) returned H5N1 antiviral inactive.
`COc1ccc(S(=O)(=O)Nc2cc(C)c(O)c(S(=O)(=O)c3ccccc3)c2)cc1` gave H5N1 antiviral 1.1.
For CC(=O)c1cnc2cc(-c3ccccc3)nn2c1C the results were H5N1 antiviral 0.6.
Screening Cc1ccc2nc(NC(=O)CSCC(=O)OCC(=O)c3ccc(Br)cc3)sc2c1 returned H5N1 antiviral inactive.
Screening O=C(c1ccncc1)N1CCN(c2cccc(C(F)(F)F)c2)CC1 returned H5N1 antiviral inactive.
For CN1C(=O)C(Cc2cccc3ccccc23)C(=O)N(C)C1=O the results were H5N1 antiviral 0.5.
For CC(C)C1Cc2c(C#N)c(N)sc(=S)c2CO1 (stereo unspecified) the results were H5N1 antiviral 0.8.
COc1ccc(C(=O)NCc2nnc(SCC(=O)Nc3cc(C)cc(C)c3)o2)cc1OC was read as H5N1 antiviral 0.2.
COC(=O)c1ccccc1NC(=S)NC(=O)C1CC1 was read as H5N1 antiviral 0.2.
For CCCCCC/C(=N\NS(C)(=O)=O)c1ccccc1 the results were H5N1 antiviral inactive.
For O=S1(=O)c2cccc3cccc(c23)N1Cc1nnc(-c2ccccc2Br)o1 the results were H5N1 antiviral 0.9.
`O=C(NCc1ccccn1)c1ccc2ccccc2n1` gave H5N1 antiviral 0.8.
Cc1nnc(N(C(=O)c2cnccn2)c2ccccc2)s1 was read as H5N1 antiviral 0.6.
Screening COC(=O)CC[C@@H](C(=O)O)N1C(=O)c2ccccc2C1=O returned H5N1 antiviral inactive.
`CC(=O)Nc1ccc(NC(=O)COC(=O)Cc2cccs2)cc1` gave H5N1 antiviral 1.0.
Screening CN1CCN(c2ccc(C=O)cc2)CC1 returned H5N1 antiviral 1.1.
`Cc1noc(C(=O)Nc2c(C)n(C)n(-c3ccccc3)c2=O)c1Cl` gave H5N1 antiviral 0.4.
For CCN(CC)CCCN=Cc1c(O)n(Cc2ccccc2)c(=O)c2ccccc12 the results were H5N1 antiviral inactive.
`COc1ccc(C(=S)N2CCN(C)CC2)cc1` gave H5N1 antiviral inactive.
`COC(=O)c1ccc(NC(=O)CN(Cc2ccc(Cl)cc2)S(C)(=O)=O)cc1` gave H5N1 antiviral 1.5.
N#Cc1c(-c2ccc(Cl)cc2)nc2n(c1=O)CCCS2 was read as H5N1 antiviral 1.7.
O=C(CSc1nc2ccccc2c(=O)n1-c1ccccc1)NCc1ccc2c(c1)OCO2 was read as H5N1 antiviral inactive.
Screening COc1ccc(OC)c(NC2=NC3(CCCCC3)N=C(N)N2)c1 returned H5N1 antiviral 1.6.
`O=C(NC1CCCCC1)C(c1ccc2ncccc2c1)N(Cc1ccccc1)C(=O)c1ccc2c(c1)OCCO2` (stereo unspecified) gave H5N1 antiviral inactive.
For COc1cc(OC)c(OC)cc1CN1CCN(S(=O)(=O)c2ccc(F)cc2)CC1 the results were H5N1 antiviral 1.6.
Clc1ccccc1-c1nn2c(COc3ccccc3)nnc2s1 was read as H5N1 antiviral inactive.
For CCSc1ncc(/C=N/Nc2ccc([N+](=O)[O-])cc2)n1C the results were H5N1 antiviral inactive.
For CCN1CCN(c2ncnc3c2nnn3Cc2ccccc2)CC1 the results were H5N1 antiviral inactive.
Screening Cc1cc(C)n(-c2nc3ccccc3nc2N2CCN(C(=O)c3ccc(Cl)cc3)CC2)n1 returned H5N1 antiviral inactive.
For C#CCOC(=O)C(NC(=O)c1ccccc1)=C(C)C the results were H5N1 antiviral 0.9.
Screening COc1ccc(-n2sc3c(c2=S)-c2cc(OC)ccc2NC3(C)C)cc1 returned H5N1 antiviral inactive.
`COC(=O)COc1ccc(S(=O)(=O)NCc2cccnc2)cc1C` gave H5N1 antiviral 0.8.
For O=C(NC1(C(F)(F)F)C(=O)Nc2c1c(=O)[nH]c(=O)n2Cc1ccco1)C1CC1 (stereo unspecified) the results were H5N1 antiviral inactive.
`C/C(N)=C(/C#N)C(=O)CSc1nnc(SCc2ccc(Cl)cc2)s1` gave H5N1 antiviral inactive.
Screening COC(=O)C(CCSC)NC(=O)CNC(=O)C1CCCCC1 (stereo unspecified) returned H5N1 antiviral inactive.
Screening Cc1c(N=Cc2c(O)n(CCc3ccc(F)cc3)c(=O)[nH]c2=O)c(=O)n(-c2ccccc2)n1C returned H5N1 antiviral 4.3.
Screening Cc1[nH]nc2c1C1(C(=O)N(Cc3ccc(Cl)cc3)c3ccccc31)C(C#N)=C(N)O2 (stereo unspecified) returned H5N1 antiviral 4.6.
For O=C(NC1CCCCC1)N1CCCC(c2nc(-c3cccs3)no2)C1 (stereo unspecified) the results were H5N1 antiviral inactive.
`C/C(CC(=O)Nc1cc(Cl)ccc1Cl)=N\NC(=O)c1ccco1` gave H5N1 antiviral inactive.
`COCCNCCOCCOc1ccc(Cl)c(C)c1` gave H5N1 antiviral inactive.
Screening CCOC(=O)C1CCCN(Cc2nc(N)nc(Nc3ccc(C)cc3)n2)C1 (stereo unspecified) returned H5N1 antiviral inactive.
For COc1ccc2c(c1)c1nnc(SCC(=O)N3C(C)CCCC3C)nc1n2C (stereo unspecified) the results were H5N1 antiviral 1.9.
`CCOc1ccc(OC(=O)c2cccnc2)cc1` gave H5N1 antiviral 0.1.
`Cc1ccc(-n2c(Cc3cccn3C)nnc2SCC(=O)NCc2ccc3c(c2)OCO3)cc1` gave H5N1 antiviral 1.9.
Screening COc1cccc(C2CC(c3ccc(F)cc3)Nc3nc(N)nn32)c1 (stereo unspecified) returned H5N1 antiviral 1.4.
COc1ccc(C2C(C(=O)N3CCOCC3)c3ccccc3C(=O)N2c2ccc(OC)cc2)cc1 (stereo unspecified) was read as H5N1 antiviral inactive.
CCSc1nc(N2CCOCC2)c2ccccc2n1 was read as H5N1 antiviral 2.6.
O=C(Nc1ccc(N2CCOCC2)cc1)c1ccc2nc(-c3ccco3)c(-c3ccco3)nc2c1 was read as H5N1 antiviral inactive.
Screening O=C(CN1C(=O)c2ccccc2S1(=O)=O)NC1CCCCCC1 returned H5N1 antiviral 0.4.
Screening CCc1ccc(N2CC34C=CC(O3)C(C(=O)OC)C4C2=O)cc1 (stereo unspecified) returned H5N1 antiviral 0.5.
For COc1ccc(NC(=O)C2CCC(CNc3c(N4CCC(C)CC4)c(=O)c3=O)CC2)cc1OC (stereo unspecified) the results were H5N1 antiviral 2.0.
`O=C(NCC1CCCO1)Nc1ccc(Cl)cc1` (stereo unspecified) gave H5N1 antiviral 1.0.
For Cc1cnc(C(=O)Nc2ccc(N3CCOCC3)cc2)cn1 the results were H5N1 antiviral inactive.
`Cc1nn(Cc2ccccc2)c(N)c1C#N` gave H5N1 antiviral inactive.
`O=C(c1ccco1)N1CCN(C(=O)C(Sc2ccccc2)c2ccccc2)CC1` (stereo unspecified) gave H5N1 antiviral 0.3.
For C/C(N)=C(/C#N)C(=O)CSc1nnc(Nc2ccccc2C)s1 the results were H5N1 antiviral inactive.
Cc1ccc(S(=O)(=O)N/N=C/c2cnn(C)c2C)cc1 was read as H5N1 antiviral inactive.
For COc1ccc(CCNC(=O)c2nn(C)cc2Cl)cc1 the results were H5N1 antiviral inactive.
Screening CCOC(=O)NC(=O)/C(C#N)=N/Nc1c(F)cccc1F returned H5N1 antiviral inactive.
`O=C(CSc1nnc(-c2cccnc2)n1Cc1ccco1)c1ccc(Cl)cc1` gave H5N1 antiviral 2.9.
For CCCCCCc1ccc(OCC(=O)O)cc1OCC(=O)O the results were H5N1 antiviral 0.5.
O=[N+]([O-])c1cn(Cc2ccc(Cl)cc2)cn1 was read as H5N1 antiviral inactive.
Screening COc1ccc(S(=O)(=O)N(C)CC(=O)Nc2ccc3c(c2)OCO3)cc1OC returned H5N1 antiviral 1.7.
`O=C(NCCN1CCCCC1)/C(=N\O)c1ccccc1` gave H5N1 antiviral inactive.
COc1ccc(C(=O)Nc2cc([N+](=O)[O-])ccc2N2CCN(C)CC2)cc1 was read as H5N1 antiviral 0.8.
For O=C(OCC(=O)N1CCN(C(=O)c2ccco2)CC1)c1sc2cc(F)ccc2c1Cl the results were H5N1 antiviral inactive.
Screening Cc1ccc(S(=O)(=O)Cc2c(C)noc2C)cc1 returned H5N1 antiviral 0.1.
For CCOC(=O)c1cc2c(=O)n3cccc(C)c3nc2n(CCCOC)c1=NC(=O)c1cccnc1 the results were H5N1 antiviral 1.2.
For CC(C)c1ccc(S(=O)(=O)c2n[nH]n3c2nc(=O)c2ccccc23)cc1 the results were H5N1 antiviral inactive.
Screening O=C1N=C(N2CCCCC2)SC1=C1CCCC1 returned H5N1 antiviral 0.6.
For Cc1cc(NS(=O)(=O)c2ccc(CC(C)C)cc2)no1 the results were H5N1 antiviral inactive.
`CCOC(=O)c1c(-c2ccccc2)oc2ccc(OC)cc12` gave H5N1 antiviral inactive.
For Cc1c(CCC(=O)O)c(=O)n2c([nH]c3ccccc32)c1C#N the results were H5N1 antiviral 0.6.
Screening COc1cc(NS(=O)(=O)c2ccc(F)cc2)c(C(=O)O)cc1OC returned H5N1 antiviral inactive.

Of the compounds above, eleven contain a cyano group:
Screening CCCCc1nc(NCCNC(=O)c2ccccc2)c(C#N)c2c1CSC(C)(C)C2 returned H5N1 antiviral 1.3.
`Cn1ncc(C#N)c1NC(=O)c1nn2cccnc2c1Cl` gave H5N1 antiviral 0.3.
`COCCCNC(=O)C(C#N)c1nc2ccccc2nc1N1CCCC1` (stereo unspecified) gave H5N1 antiviral inactive.
For CC(C)C1Cc2c(C#N)c(N)sc(=S)c2CO1 (stereo unspecified) the results were H5N1 antiviral 0.8.
N#Cc1c(-c2ccc(Cl)cc2)nc2n(c1=O)CCCS2 was read as H5N1 antiviral 1.7.
`C/C(N)=C(/C#N)C(=O)CSc1nnc(SCc2ccc(Cl)cc2)s1` gave H5N1 antiviral inactive.
Screening Cc1[nH]nc2c1C1(C(=O)N(Cc3ccc(Cl)cc3)c3ccccc31)C(C#N)=C(N)O2 (stereo unspecified) returned H5N1 antiviral 4.6.
`Cc1nn(Cc2ccccc2)c(N)c1C#N` gave H5N1 antiviral inactive.
For C/C(N)=C(/C#N)C(=O)CSc1nnc(Nc2ccccc2C)s1 the results were H5N1 antiviral inactive.
Screening CCOC(=O)NC(=O)/C(C#N)=N/Nc1c(F)cccc1F returned H5N1 antiviral inactive.
For Cc1c(CCC(=O)O)c(=O)n2c([nH]c3ccccc32)c1C#N the results were H5N1 antiviral 0.6.

Screening data: PubChem BioAssay, SRMLSC

An excerpt. The share of hits here may be higher or lower than overall.
